Source: PubChem BioAssay
YopH inh: blocks Yersinia enterocolitica YopH tyrosine phosphatase. AID 898. 0.16% of 140,000 active. fluorescence Ex485/Em525. inhibition, %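 (about 10 µM by stock and volumes)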;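 active means inhibition of 50% or more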;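 further: controls were vehicle for no effect and minimum signal wells for full effect; inactives centre near -20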
RecA intein inh: Mtb RecA intein splicing inhibition. P9WHJ3. 0.75% of 290,000 active. inhibition, %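 (about 9 µM by stock and volumes)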. cell-free RecA intein splicing, fluorescence; in the data active means inhibition above about 30%; inconclusive means no clear call, values can overlap the other calls;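 further: 0% = vehicle wells and 100% = reference inhibitor control wells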
Target sequence (P9WHJ3 whole entry, looked up): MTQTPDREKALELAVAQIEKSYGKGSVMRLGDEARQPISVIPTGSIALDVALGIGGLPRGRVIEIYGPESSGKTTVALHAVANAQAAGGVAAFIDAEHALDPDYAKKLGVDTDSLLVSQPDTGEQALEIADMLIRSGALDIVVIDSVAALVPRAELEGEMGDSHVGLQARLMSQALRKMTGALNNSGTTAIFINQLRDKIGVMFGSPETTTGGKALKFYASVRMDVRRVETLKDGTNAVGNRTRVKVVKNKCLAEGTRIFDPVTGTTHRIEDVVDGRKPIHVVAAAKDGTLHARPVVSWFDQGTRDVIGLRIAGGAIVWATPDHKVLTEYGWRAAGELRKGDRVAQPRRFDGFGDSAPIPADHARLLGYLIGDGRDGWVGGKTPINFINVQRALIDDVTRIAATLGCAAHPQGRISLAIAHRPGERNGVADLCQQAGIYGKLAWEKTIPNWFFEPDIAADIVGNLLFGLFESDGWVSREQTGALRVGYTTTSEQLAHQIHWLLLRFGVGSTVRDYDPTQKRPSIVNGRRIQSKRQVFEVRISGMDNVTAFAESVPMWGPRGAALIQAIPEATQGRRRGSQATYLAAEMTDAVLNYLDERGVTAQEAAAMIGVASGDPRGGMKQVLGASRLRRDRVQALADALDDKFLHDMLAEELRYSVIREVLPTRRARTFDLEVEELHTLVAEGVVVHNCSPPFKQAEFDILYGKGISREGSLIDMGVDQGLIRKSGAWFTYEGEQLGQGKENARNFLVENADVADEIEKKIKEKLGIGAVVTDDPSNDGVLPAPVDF
Mtb H37Rv: M. tuberculosis H37Rv growth inhibitors, H37Rv strain (AID 1626); M. tuberculosis H37Rv growth inhibition; higher % means a stronger effect; one-dose inhibition, % at 10 µM; IC50 in µM for titrated hits; 0.95% of 220,000 active;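 active means confirmed in a dose series; inconclusive means inhibition above 80% but not taken into the dose series; inactive means below 80% or under 30% at every dose of the series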;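 further: bacteria incubated seven days before Alamar blue readout; 0% = bacteria only wells and 100% = bacteria with antibiotic wells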
Arbovirus anti: antivirals against arbovirus infection; arbovirus infection cell-based antiviral screen; inhibition, % at 10 µM; 0.37% of 200,000 active; AID 1251;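 active means inhibition from about 30%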;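 further: bluetongue infection of BSR cells; cell survival read as ATP light after 72 h; 0% = infected wells without compound and 100% = uninfected wells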
Mtb betalactam: beta-lactam sensitization of Mtb H37Rv; M. tuberculosis H37Rv growth with meropenem, percent inhibition; hits of this screen are not shown here; inhibition, % at 25 µM; 0.27% of 330,000 active; AID 434955;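 active means about 74% or more and at least 40 points above the plate without the antibiotic, then above 30% in a dose series; inconclusive means first-round hits that could not be retested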;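 further: growth measured after seven days incubation then overnight dye step; 0% = bacteria only wells and 100% = bacteria with antibiotic; twin plates without the antibiotic show which effects depend on it; some results filed as inactive read as strong as hits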
Arbovirus anti repeat: further read-out of Arbovirus anti, marked with its call; inhibition, %; measured here: 10K subset replicate screen; many hits read low in the repeat;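 first of two repeat runs on a subset; 0% = infected and 100% = uninfected wells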
Active calls of the source: *; ? = inconclusive; . = not tested or not shown; & = joins results of further samples. Some of the compounds tested. The share of hits here may be higher or lower than overall.

SMILES	YopH inh	RecA intein inh	Mtb H37Rv	Arbovirus anti	Mtb betalactam	others
CCc1ccc(-c2nn(Cc3ccccc3)cc2/C=C/C(=O)O)cc1	-13	0.9	16%	-5	6
Cc1[nH]c2ccccc2c1C(=O)/C=C/c1ccccc1Cl	-24	4.1	4%	-1	-2
N/C(=N\c1nc2c(c(=O)[nH]1)CCCC2)Nc1ccccc1	-39	-2.5	4%	-6	2
CCC(=O)c1ccc(OCC(=O)N2CCN(c3ncccn3)CC2)cc1	.	-1.1	.	.	-2
CCOC(=O)c1ccc(NC(=O)CN(Cc2ccc(Cl)cc2)S(C)(=O)=O)cc1	-14	-0.7	5%	-12	20
CC(C#N)(NC(=O)COC(=O)c1ccccc1NCCO)C1CC1 (stereo not drawn)	.	-12	.	.	-8
Cc1ccc(NC(=O)Cn2nc(C)c(S(=O)(=O)N(C)C)c2C)cc1	.	0.0	4%	8	-3
O=C(CC1Sc2ccccc2NC1=O)Nc1cccc(C(=O)O)c1 (stereo not drawn)	-26	1.5	-2%	8	11	Arbovirus anti repeat=6
COc1cccc(-c2onc3ccc(C4(C)OCCO4)cc23)c1	.	-3.3	-1%	-3	5
O=C1CC(c2ccco2)CC(O)=C1C=NCCN1CCN(C(=S)Nc2ccccc2)CC1 (stereo not drawn)	.	-0.2	7%	.	6
CCC(Cc1ccccc1)NS(=O)(=O)c1c(C)nc2sccn2c1=O (stereo not drawn)	.	-2.4	.	.	6
Cc1nc(-c2cccc(S(=O)(=O)N3CCCC(C)C3)c2)cs1 (stereo not drawn)	-9	4.2	6%	3	-2
CC1(C)CC(=O)C=C(Nc2cc(-c3ccccc3)[nH]n2)C1	-29	0.0	7%	4	4	Arbovirus anti repeat=-1
Cc1ccccc1C(=O)NC1CCN(Cc2nnnn2Cc2ccc(F)cc2)CC1	-45	-0.6	1%	3	-1
Cc1nc(NCCc2ccc(S(N)(=O)=O)cc2)c2c(C)c(C)sc2n1	-10	1.0	13%	0	-10
O=C(N/N=C/c1ccc(N2CCOCC2)cc1)C1CC1	.	-4.9	6%	2	2
COc1ccc(N2C(=O)C3C4C=CC(C5CC45)C3C2=O)c([N+](=O)[O-])c1 (stereo not drawn)	-23	7.8	12%	-12	7
CCc1cc2c(=O)c(-c3cnn(-c4ccccc4)c3)coc2c(CN2CCOCC2)c1O	12	-3.5	6%	-1	93
Cc1cc(C)cc(OCc2nnc(SCC(=O)Nc3ccccc3)o2)c1	39	-3.1	-2%	-2	4
CC(C)OP(=O)(OC(C)C)C(O)c1cccnc1 (stereo not drawn)	-32	-2.1	-7%	-6	-6
CN=C1CC(SC)=C1c1ccc(C)cc1	3	4.5	-10%	-6	0
CCCCC(=O)c1ccc(O)cc1O	-26	0.8	77%	4	88
N#CC1=C(N)OC2=C(C(=O)CCC2)C1C1C=CCCC1 (stereo not drawn)	-40	1.7	-2%	11	-2
S=C(NCCCN1CCOCC1)Nc1ccc(Cl)cc1Cl	-28	4.8	-7%	0	6
O=C(O)/C=C\C(=O)N1CCc2ccccc21	-18	2.6	0%	-6	-4
NS(=O)(=O)c1ccc(CCNC(=O)/C=C/c2ccc([N+](=O)[O-])cc2)cc1	.	1.3	-3%	-9	-6
Cc1ccc(C(=O)NCc2ccncc2)cc1S(=O)(=O)Nc1cccc(C)c1C	.	3.4	.	.	2
CCN(CCCNC(=O)CSc1cc(=O)n(C)c2cc(Cl)ccc12)Cc1ccccc1	.	-0.3	-5%	-20	2
O=C(Nc1ccn(-c2ccccc2)n1)c1ccc(Cl)cc1	-32	2.0	?	-14	87
O=C(Nc1ccc(SC(F)F)cc1)C12CCC(CC1)C2	-16	5.5	8%	-2	-4
CC1(C)CC2CC(C)(CN2C(=O)CCCN2C(=O)c3ccccc3C2=O)C1 (stereo not drawn)	-24	0.7	-6%	0	-7
Cc1nn(Cc2ccccc2)c(Cl)c1C(=O)OCC(=O)NCC1CCCO1 (stereo not drawn)	.	-0.6	1%	5	1
COc1ccc(C(Nc2ccccn2)c2oc(CO)cc(=O)c2O)cc1 (stereo not drawn)	-16	-7.7	1%	-4	0
CCOC(=O)COc1cccc(C2NC(=O)c3ccccc3O2)c1 (stereo not drawn)	.	-0.2	.	.	1
COc1ccc(C2/C(=C(/O)c3ccccc3)C(=O)C(=O)N2c2ncccn2)cc1OC (stereo not drawn)	-35	1.7	-3%	-3	3
COc1cc(C(=O)N(Cc2cc3ccccc3[nH]c2=O)CC2CCCO2)cc(OC)c1OC (stereo not drawn)	-19	1.7	-14%	-10	1
O=c1cc[nH]c2cc(Cl)ccc12	-34	-0.6	-13%	1	-8
Cc1cc(C)cc(C(=O)N(CCc2ccccc2)C2CC3CCC(C2)N3C)c1 (stereo not drawn)	.	-0.8	.	.	5
CC1CCCCC1NC(=O)CCS(=O)(=O)c1ccc2c(c1)NC(=O)CO2 (stereo not drawn)	.	-4.7	.	.	-4
O=C(CN(C(=O)c1ccc(Cl)cc1)C1CCCCC1)Nc1ccc(Cl)c([N+](=O)[O-])c1	-7	-1.4	-1%	-11	1
CCN(Cc1ccccc1)C(=O)COC(=O)CNS(=O)(=O)c1ccc(C)cc1	-40	0.8	75%	-14	-1
Cc1cccc(OCCSc2nc3ccccc3n2CCC(=O)O)c1	.	2.1	.	.	4
COc1ccccc1CC(=O)NN1C(=O)c2ccccc2C1=O	-23	-51	12%	3	-2
CCCCC(=O)Nc1cccc(-c2nn3c(C)nnc3s2)c1	-6	1.5	28%	-1	0
COc1ccc(Cl)cc1NC(=O)C/C(C)=N/NC(=O)Cc1ccccc1	.	12	-6%	-9	-6
C=CCn1c(SCCOc2ccc(OC)cc2)nnc1C(NC(=O)c1ccc(OC)cc1)C(C)C (stereo not drawn)	-4	1.1	-6%	11	1
CC1=C(C(=O)Nc2ccccc2)C(c2sccc2C)n2nnnc2N1 (stereo not drawn)	4	.	.	-5	.
Cc1onc(-c2ccccc2)c1C(=O)N/N=C/c1cc(Br)c(Br)o1	-34	-7.9	-1%	-7	-4
CC(C)(C)c1csc(NNC(=O)c2ccc(Br)cc2)n1	.	6.9	?	-26	70
CC(C)COc1nc2ccccc2nc1C(C#N)C(=O)NC1CCCCC1 (stereo not drawn)	-10	-121	-3%	11	0
Cc1cc(C)nc(NS(=O)(=O)c2ccc(N3C(=O)C4C5C=CC(C5)C4C3=O)cc2)n1 (stereo not drawn)	-18	-1.2	-3%	-1	8
Cc1cc(C)n(C(=O)c2ccc(S(=O)(=O)N3CCOCC3)cc2)n1	-12	4.5	-4%	0	-4
CCc1ccc(OCC(=O)N2CCN(c3ccccn3)CC2)c(Br)c1	.	3.8	.	.	43
O=C(NNC(=O)c1ccccc1-n1cccc1)c1cccc(Cl)c1	10	-6.3	3%	-4	-7
COc1ccc(-c2nc(-c3ccccc3)[nH]c(=O)c2C#N)cc1	-30	0.2	-9%	1	84
COc1cc2c(cc1OC)C(c1cccs1)NCC2 (stereo not drawn)	-45	-0.7	-5%	0	-9	Arbovirus anti repeat=4
COc1ccc(S(=O)(=O)NC(C)C(=O)Nc2cccc([N+](=O)[O-])c2)cc1 (stereo not drawn)	-12	2.2	5%	9	-3
Cc1nnc(N2C(=O)C(O)=C(C(=O)c3ccco3)C2c2cccc([N+](=O)[O-])c2)s1 (stereo not drawn)	.	0.7	.	.	1
CCN(CC(=O)NCc1cccs1)C(=O)C(c1ccccc1)c1ccccc1	.	-2.4	.	.	6
COc1cc([N+](=O)[O-])ccc1NC(=O)N1CCCCCC1	.	0.5	.	.	-12

Molecules listed so far containing bromine (3):
SMILES	YopH inh	RecA intein inh	Mtb H37Rv	Arbovirus anti	Mtb betalactam	others
Cc1onc(-c2ccccc2)c1C(=O)N/N=C/c1cc(Br)c(Br)o1	-34	-7.9	-1%	-7	-4
CC(C)(C)c1csc(NNC(=O)c2ccc(Br)cc2)n1	.	6.9	?	-26	70
CCc1ccc(OCC(=O)N2CCN(c3ccccn3)CC2)c(Br)c1	.	3.8	.	.	43

Additional structures.
SMILES	YopH inh	RecA intein inh	Mtb H37Rv	Arbovirus anti	Mtb betalactam	others
O=C(O)c1ccc(Sc2ccccn2)c([N+](=O)[O-])c1	.	-0.1	-1%	8	-3
O=C(NCc1cccs1)C1CCCN1C(=O)Nc1ccc(Cl)cc1 (stereo not drawn)	.	1.9	6%	0	2
COc1cc2c3nnc(-c4ccc(F)cc4)c-3cn(Cc3ccc(C)cc3)c2cc1OC	-37	-74	11%	11	-5
O=C(NC12CC3CC(CC(C3)C1)C2)N1CCN(C(=O)C2CCCO2)CC1 (stereo not drawn)	0	2.4	2%	1	7
Cc1ccc(S(=O)(=O)N/N=C2\C(=O)C3(C)CCC2C3(C)C)cc1 (stereo not drawn)	.	-0.7	3%	13	0
O=C(NC1CCCC1)c1ccc2c(c1)N(Cc1ccc(F)cc1)CCS2	.	0.3	.	.	4
CCCc1nc2c(C)cc(-c3nc4ccccc4n3C)cc2n1Cc1ccc(-c2ccccc2C(=O)O)cc1	.	-0.8	15%&5%	11	20
Nc1nc(Nc2cccc3ccccc23)nc(C2CCCC2=O)n1 (stereo not drawn)	-15	0.9	.	-6	-1
COc1nc(Nc2cccc(C(F)(F)F)c2)nc(OC)n1	-23	3.4	-1%	5	8
COc1ccc2nc(-c3ccccc3)[nH]c2c1	-7	-2.2	13%	-13	-5
CN/S(=N/S(=O)(=O)c1ccccc1)c1ccc(C)cc1 (stereo not drawn)	-36	-4.7	-6%	-1	-3
CCOC(=O)Cc1nnc(Nc2cc(C)ccc2C)c2ccccc12	.	-1.1	8%	2	4

Quoted at random: three compounds from above.
SMILES	YopH inh	RecA intein inh	Mtb H37Rv	Arbovirus anti	Mtb betalactam	others
COc1ccc2nc(-c3ccccc3)[nH]c2c1	-7	-2.2	13%	-13	-5
O=C(NC1CCCC1)c1ccc2c(c1)N(Cc1ccc(F)cc1)CCS2	.	0.3	.	.	4
COc1cc2c3nnc(-c4ccc(F)cc4)c-3cn(Cc3ccc(C)cc3)c2cc1OC	-37	-74	11%	11	-5

Further entries follow.
SMILES	YopH inh	RecA intein inh	Mtb H37Rv	Arbovirus anti	Mtb betalactam	others
Cc1nnc(N(CCC#N)CCC#N)s1	-33	-0.7	1%	-2	-6
Cc1ccc(C(=O)Nc2cccc(C(=O)NCc3ccco3)c2)cc1	-31	3.3	5%	-29	11
O=C(CSc1cccc2cccnc12)N/N=C/c1ccc(F)cc1	.	-8.3	-13%	.	2
CC(C)(C)N(Cc1ccccc1)C(=O)c1ccc(Cl)cc1[N+](=O)[O-]	.	2.2	2%	10	-3
O=C(c1cc2cc(Cl)ccc2[nH]1)N1CCN(c2ccc(F)cc2)CC1	.	-0.7	.	.	-2
COc1cc2c(cc1NC(=O)c1cccc([N+](=O)[O-])c1)oc1ccccc12	-39	-11	-2%	-9	13
CC(=O)NC(C(=O)c1ccccc1)C(=O)c1ccccc1	-23	-0.2	-6%	0	1
Cc1cccc(-c2noc(CCC(=O)NC3CCCCC3)n2)c1	.	-0.4	.	.	-4
Cc1ccc(N(C)S(=O)(=O)c2cccc(C(=O)NCC(c3cccs3)N3CCOCC3)c2)cc1 (stereo not drawn)	.	4.0	.	.	-3
O=C(COC(=O)c1ccc(S(=O)(=O)Nc2ccccc2)cc1)NCCN1C(=O)CSC1=O	-14	2.7	0%	3	1
O=C(c1ccc2nc(N3CCOCC3)sc2c1)N1CCN(c2ccc(Cl)cc2)CC1	.	2.8	.	.	5
CN(CCc1ccccn1)C1CCCN(S(=O)(=O)c2ccccc2Cl)C1 (stereo not drawn)	.	-0.8	.	.	5
COc1ccc(-n2ncc3c(NCc4cccs4)ncnc32)cc1	1	-3.6	16%	-8	-3
O=C(COC(=O)c1ncc(Cl)c(Cl)c1Cl)Nc1cccnc1Cl	.	-0.6	.	.	-1
O=C(CCc1nnc(CCCc2ccccc2)o1)N1CCCCCC1	.	-6.1	-3%	1	42
N#CCC(CNc1ncc(C(F)(F)F)cc1Cl)OC(=O)c1c(F)cccc1F (stereo not drawn)	-41	2.4	0%	.	4
O=C1CCCC2=C1C(c1ccc(O)c(O)c1)c1c(ccc3ncccc13)N2 (stereo not drawn)	.	-2.1	-3%	1	-5
Clc1ccccc1Sc1cnc2ccccc2n1	-18	4.0	10%	0	4
NNC(=O)c1ccc(NS(=O)(=O)c2ccc(Br)cc2)cc1	.	1.3	-4%	.	1
O=C(COc1ccc(/C=N/NS(=O)(=O)c2ccccc2)cc1)NCc1ccccc1	-9	-1.1	5%	9	-4

By substructure: the entries above containing a CF3 group.
SMILES	YopH inh	RecA intein inh	Mtb H37Rv	Arbovirus anti	Mtb betalactam	others
COc1nc(Nc2cccc(C(F)(F)F)c2)nc(OC)n1	-23	3.4	-1%	5	8
N#CCC(CNc1ncc(C(F)(F)F)cc1Cl)OC(=O)c1c(F)cccc1F (stereo not drawn)	-41	2.4	0%	.	4
